# Screening data deposited in PubChem by Broad Institute.
# AF4-AF9 inh: inhibitors of AF4 peptide binding to AF9, primary screen, biochemical, AlphaScreen, biotin-AF4 peptide, FLAG-AF9, single point; inhibition, % at 10 µM; 350,000 tested, 0.47% active; AID 651704, 2012;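 active means every replicate reaching a set inhibition limit, whatever the replicate mean, cut at about 25% in these data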;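 further: 0% = plate neutral control median and 100% = total signal loss; the record names both 10 and 1 µM as test concentration; the first replicate is given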
# Target sequence (P42568 whole entry, looked up): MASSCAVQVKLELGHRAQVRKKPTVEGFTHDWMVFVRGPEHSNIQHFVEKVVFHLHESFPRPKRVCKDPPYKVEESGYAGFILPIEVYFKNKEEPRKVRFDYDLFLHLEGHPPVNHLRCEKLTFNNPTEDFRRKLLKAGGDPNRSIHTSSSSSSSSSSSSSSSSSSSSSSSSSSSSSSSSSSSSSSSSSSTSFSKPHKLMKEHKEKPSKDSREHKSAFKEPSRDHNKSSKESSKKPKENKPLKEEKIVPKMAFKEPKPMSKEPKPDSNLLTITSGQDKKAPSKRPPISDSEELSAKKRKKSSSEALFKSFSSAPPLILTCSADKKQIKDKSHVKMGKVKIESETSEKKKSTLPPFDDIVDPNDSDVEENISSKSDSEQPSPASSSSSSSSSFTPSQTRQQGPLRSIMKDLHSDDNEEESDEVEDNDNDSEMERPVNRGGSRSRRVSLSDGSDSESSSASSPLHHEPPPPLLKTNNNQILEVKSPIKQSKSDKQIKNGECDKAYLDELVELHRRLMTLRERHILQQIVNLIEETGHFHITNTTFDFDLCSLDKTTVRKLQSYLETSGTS
# Ecoli rRNA inh: reduced GFP signal of wild-type E. coli, primary screen, bacterial rRNA inhibitor project, GFP/RFP fluorescence, OD600, single point; E. coli WT GFP vs humanized-ribosome RFP mutants, 24 h; active compounds read low; DMSO median 0, no signal -100; GFP signal change (wild-type ribosome), % (concentration not given with the values); 350,000 tested, 1.6% active; AID 720706, 2013;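 active means significant combined selectivity score with lowered wild-type GFP, culture density cut under 30%, mutant RFP and density less affected; inactive means any of these conditions unmet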; further: one replicate is shown; some compounds called inactive have numbers as strong as hits
# FGF22 binding: binders of human FGF22 protein, primary screen, FGF22 synaptogenesis inhibitor project, biophysical, thermal shift, single point; Fibroblast growth factor 22 (Homo sapiens), Q9HCT0; recombinant FGF22 thermal shift, SYPRO orange fluorescence; percent of sucrose octasulfate shift, DMSO zero; calls only at 9.99 µM; 340,000 tested, 1.5% active;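 active means melting point raised past a set limit in the mean and every replicate; three in four hits are not shown here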
# Target sequence (Q9HCT0 whole entry, looked up): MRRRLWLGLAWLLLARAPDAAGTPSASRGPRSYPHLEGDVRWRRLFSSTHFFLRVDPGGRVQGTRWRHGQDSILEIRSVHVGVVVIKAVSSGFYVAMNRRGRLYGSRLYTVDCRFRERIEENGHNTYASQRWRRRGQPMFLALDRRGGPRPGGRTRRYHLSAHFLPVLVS
# Ecoli rRNA inh OD600: also measured in Ecoli rRNA inh; calls as there; OD600 change, %; measured here: OD600 growth;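 optical density of the mix in the first replicate; 0 = DMSO median and -100 = no signal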
# Ecoli rRNA inh RFP: recorded beside Ecoli rRNA inh, whose call it bears; RFP signal change, %; measured here: RFP humanized mutant strains;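 first replicate; 0 = DMSO median and -100 = no signal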
# * = called active by the depositor; i = inactive; + = active, no number; & = joins results of further samples. Not all compounds are listed; rates above refer to the full screens.
SMILES,AF4-AF9 inh,Ecoli rRNA inh,Ecoli rRNA inh OD600,Ecoli rRNA inh RFP,FGF22 binding
O=C(C[C@@H]1CC[C@H]2[C@@H](COC[C@@H](O)CN2C(=O)Nc2cc(Cl)cc(Cl)c2)O1)NCC1CCCCC1,0.2,-48,-75,-6.1,i
C[C@@H]1CCCCO[C@H](CN(C)C(=O)Nc2ccc3c(c2)OCO3)[C@H](C)CN([C@@H](C)CO)C(=O)c2cc(NC(=O)Nc3ccc4c(c3)OCO4)ccc2O1,1.3,-2,10,-4.1,i
CC(=O)N(C)C[C@@H]1Oc2ncc(C#Cc3cccnc3)cc2C(=O)N([C@H](C)CO)C[C@@H]1C,-6.4,3,2,-3.4,i
C[C@@H]1CCCCO[C@@H](CN(C)S(=O)(=O)c2ccccc2)[C@@H](C)CN([C@@H](C)CO)C(=O)c2cc(NC(=O)Nc3cccc4ccccc34)ccc2O1,-8.1,3,-1,-1.6,i
COc1ccc(NC(=O)Nc2cccc3c2O[C@H](CN(C)C(=O)Nc2ccc4c(c2)OCO4)[C@@H](C)CN([C@@H](C)CO)C3=O)cc1,0.3,-3,-3,-2.9,i
COc1cccc(CN2[C@@H]3CN(C(=O)c4cccnc4)c4ccccc4[C@@H]3[C@@H]2CO)c1,-1.9,1,4,3.4,i
CO[C@H]1CN(C)C(=O)c2ccc(NC(=O)NC(C)C)cc2OC[C@H](C)N(C(=O)C2CCC2)C[C@@H]1C,-1.3,-1,-2,-1.6,i
CO[C@@H]1CC[C@H]2CCN(C)C(=O)[C@@H](C)CN(C)C(=O)c3cc(C#N)ccc3OC[C@@H]1O2,-2.0,-6,-8,-2.4,i
CC1(C)CC(Cc2ccc(C(=O)c3ccccc3)cc2)N(C(=O)OC(C)(C)C)N1 (centres undefined),0.2,-18,-29,-2.8,i
CCCCCCN1CCN(C2CN(Cc3cn(Cc4ccc(F)cc4)nn3)S(=O)(=O)C2)CC1 (centres undefined),-4.2,6,6,2.4,i
COc1cccc(S(=O)(=O)N[C@@H]2CC[C@H](CC(=O)NCc3ccc(Cl)cc3)O[C@@H]2CO)c1,0.7,-9,-4,1.7,i
C[C@H](O)C#Cc1ccc([C@@H]2[C@@H](CO)N3CCCCN(C(=O)c4ccc(F)cc4)C[C@H]23)cc1,-4.4,2,-3,1.9,i
C[C@@H]1CN([C@H](C)CO)C(=O)CCCn2nncc2CO[C@@H]1CN(C)C(=O)Nc1ccc(C(C)(C)C)cc1,-0.6,0,6,-3.4,i
C[C@H](CO)N1C[C@H](C)[C@@H](CN(C)C(=O)Cc2ccccn2)Oc2cc(-c3cccc(C(=O)N(C)C)c3)ccc2S1(=O)=O,-2.1,-2,7,-0.2,i
COc1ccc(S(=O)(=O)N2CCCCN3[C@H](CO)[C@@H](c4ccc(C5=CCCC5)cc4)[C@@H]3C2)cc1,2.9,-2,-3,3.5,i
C[C@H](CO)N1C[C@H](C)[C@H](CN(C)Cc2ccc(C(F)(F)F)cc2)Oc2c(NS(=O)(=O)c3ccc(F)cc3)cccc2C1=O,5.4,-3,-2,0.2,i
C[C@@H]1CN([C@H](C)CO)C(=O)c2cc(NC(=O)CCCCCC(=O)Nc3ccccc3N)ccc2O[C@H]1CN(C)Cc1ccncc1,-2.2,2,6,3.8,i
CO[C@@H]1CN(C)C(=O)c2cc(NC(=O)Nc3c(C)noc3C)ccc2OC[C@@H](C)N(CCC(F)(F)F)C[C@H]1C,2.4,-1,-5,1.3,i
CC(=O)N(C)C[C@@H]1Oc2ncc(C#Cc3ccccc3)cc2C(=O)N([C@H](C)CO)C[C@H]1C,-0.5,-1,11,-1.5,i
CC1(C(=O)NS(=O)(=O)c2cccc(F)c2)CCN1C(=O)Cc1cccc2ccccc12 (centres undefined),-1.6,6,14,-0.1,i
O=C(C[C@H]1C[C@H]2c3cc(NS(=O)(=O)c4ccccc4)ccc3O[C@H]2[C@H](CO)O1)NCC(F)(F)F,0.0,-6,-20,-1.5,i
COC(=O)C[C@H]1CC[C@H]2[C@@H](COc3ccc(NC(=O)NCc4ccccc4)cc3C(=O)N2C)O1,-1.5,-1,3,1.3,i
COc1ccc(NC(=O)N(C)C[C@@H]2OCc3ccccc3-c3ccccc3C(=O)N([C@@H](C)CO)C[C@H]2C)cc1,-0.8,0,10,-4.6,i
C[C@@H]1CN([C@H](C)CO)C(=O)c2cccc(NC(=O)NC3CCCCC3)c2O[C@@H]1CN(C)Cc1ccc(C(F)(F)F)cc1,3.3,-4,-18,2.8,i
O=C(/C=C/[C@H]1O[C@@H](n2cnc3c(NC(=O)c4ccccc4)ncnc32)[C@H](O)[C@@H]1O)N[C@@H](CO)Cc1c[nH]c2ccccc12,-0.6,-9,-1,-2.5,i

# Among those listed so far, 5 contain an aryl methoxy group.
SMILES,AF4-AF9 inh,Ecoli rRNA inh,Ecoli rRNA inh OD600,Ecoli rRNA inh RFP,FGF22 binding
COc1ccc(NC(=O)Nc2cccc3c2O[C@H](CN(C)C(=O)Nc2ccc4c(c2)OCO4)[C@@H](C)CN([C@@H](C)CO)C3=O)cc1,0.3,-3,-3,-2.9,i
COc1cccc(CN2[C@@H]3CN(C(=O)c4cccnc4)c4ccccc4[C@@H]3[C@@H]2CO)c1,-1.9,1,4,3.4,i
COc1cccc(S(=O)(=O)N[C@@H]2CC[C@H](CC(=O)NCc3ccc(Cl)cc3)O[C@@H]2CO)c1,0.7,-9,-4,1.7,i
COc1ccc(S(=O)(=O)N2CCCCN3[C@H](CO)[C@@H](c4ccc(C5=CCCC5)cc4)[C@@H]3C2)cc1,2.9,-2,-3,3.5,i
COc1ccc(NC(=O)N(C)C[C@@H]2OCc3ccccc3-c3ccccc3C(=O)N([C@@H](C)CO)C[C@H]2C)cc1,-0.8,0,10,-4.6,i

# Continuation.
SMILES,AF4-AF9 inh,Ecoli rRNA inh,Ecoli rRNA inh OD600,Ecoli rRNA inh RFP,FGF22 binding
CNC(=O)C[C@@H]1CC[C@H]2[C@@H](COC[C@@H](O)CN2C(=O)c2ccc3c(c2)OCO3)O1,-2.4,5,0,0.0,i
C[C@@H]1CCCCO[C@H](CN(C)C(=O)Nc2ccc3c(c2)OCO3)[C@@H](C)CN([C@H](C)CO)C(=O)c2cc(NC(=O)C3CCCCC3)ccc2O1,1.0,-4,-6,-0.3,i
N[C@@H]1CC[C@@H](CCn2cc(C3(O)CCCC3)nn2)O[C@H]1CO,0.9,-2,0,0.0,i
C[C@@H]1CN([C@H](C)CO)C(=O)c2cccc(NC(=O)Nc3ccc(F)cc3)c2O[C@H]1CN(C)S(C)(=O)=O,-2.5,1,-2,0.5,i
CC(=O)N1CCCCN2[C@@H](CO)[C@H](c3ccc(-c4cccc(C)c4)cc3)[C@@H]2C1,1.9,0,10,-2.7,i
Cc1ccc(-c2ccc([C@@H]3[C@@H](CO)N4CCCCN(C(=O)Nc5ccccc5)C[C@@H]34)cc2)cc1,-5.9,-30,-24,17,i
O=C(C[C@H]1C[C@H]2c3cc(NC(=O)C4CCOCC4)ccc3O[C@H]2[C@H](CO)O1)NCc1cccnc1,-19,7,1,-2.0,i
C[C@@H]1CN([C@@H](C)CO)C(=O)c2cccc(NS(=O)(=O)c3cccs3)c2O[C@@H]1CN(C)C(=O)Nc1ccc(F)cc1,-0.8,-2,-1,-0.4,i
C[C@H]1CN([C@@H](C)CO)C(=O)Cc2cc(NC(=O)NC3CCCCC3)ccc2O[C@@H]1CN(C)C(=O)Nc1cccc2ccccc12,-1.8,0,1,0.6,i
C[C@H](CO)N1C[C@H](C)[C@@H](CN(C)S(=O)(=O)c2ccccc2)Oc2ncc(-c3ccncc3)cc2C1=O,-0.7,0,7,-2.2,i
COc1ccc(NC(=O)N(C)C[C@H]2OCc3cnnn3CCCC(=O)N([C@H](C)CO)C[C@H]2C)cc1,-1.1,-3,1,-1.7,i
COc1ccc(CN(C)C[C@@H]2OCCCC[C@@H](C)Oc3ccc(NC(=O)C4CCCCC4)cc3C(=O)N([C@H](C)CO)C[C@@H]2C)cc1,-8.2,4,4,-3.1,i
Cc1cccc(C)c1NC(=O)CN(C)C(=O)c1ccc(OCc2ccccc2)cc1,-2.8,1,1,3.7,i
COc1ccc(S(=O)(=O)N(C)C[C@@H]2Oc3ccc(NS(=O)(=O)c4ccc(F)cc4)cc3C(=O)N([C@@H](C)CO)C[C@H]2C)cc1,-0.1,-6,-6,3.6,i
C[C@@H]1CN([C@@H](C)CO)C(=O)c2cc(C#Cc3ccccn3)cnc2O[C@@H]1CN(C)Cc1ccncc1,-5.9,6,-3,-0.2,i
C[C@@H]1CN([C@H](C)CO)C(=O)c2cccc(NS(=O)(=O)c3cn(C)cn3)c2O[C@@H]1CN(C)C(=O)Nc1ccc2c(c1)OCO2,-3.2,5,15,-0.4,i
COc1cccc(-c2cc3nc(NCCCN(C)C)n(C)c(=O)c3s2)c1,3.6,-3,11,2.1,i
C[C@H]1CN([C@@H](C)CO)C(=O)c2cc(NC(=O)CCCCCC(=O)Nc3ccccc3N)ccc2O[C@H]1CN(C)S(=O)(=O)c1cccs1,-3.0,-4,-6,2.2,i
CNC(=O)C[C@H]1CC[C@H]2[C@@H](COc3ccc(NC(=O)Nc4ccccc4OC)cc3C(=O)N2C)O1,-0.5,0,-2,-2.3,i
C[C@@H]1CN([C@@H](C)CO)C(=O)c2cc(NS(=O)(=O)c3ccc(F)cc3)ccc2O[C@@H](C)CCCCO[C@H]1CN(C)S(=O)(=O)c1ccccc1,-5.4,-3,-6,-3.4,i
C[C@@H]1CN([C@H](C)CO)C(=O)c2cc(N(C)C)ccc2O[C@@H]1CN(C)CC1CCCCC1,4.4,1,3,0.7,+
CCC(=O)Nc1ccc2c(c1)OC[C@H](C)N(CCc1ccccc1)C[C@@H](C)[C@H](OC)CN(C)C2=O,3.9,-5,-8,1.2,i
COc1ccc(-c2ccccc2[C@@H]2[C@@H](C#N)N(C(=O)C3CC3)[C@H]2CO)cc1,-1.3,1,3,1.4,i
O=C(Nc1ccc(F)cc1)N[C@H]1CC[C@H](CCn2cc(C3(O)CCCC3)nn2)O[C@@H]1CO,-0.5,-2,2,-1.8,i
CC(=O)N1[C@@H](CO)[C@H](c2ccccc2)[C@@H]1CN(CC1CCC1)C(=O)CN(C)C,-1.1,2,1,-1.9,i

# The listing continues:
SMILES,AF4-AF9 inh,Ecoli rRNA inh,Ecoli rRNA inh OD600,Ecoli rRNA inh RFP,FGF22 binding
C[C@H](CO)N1C[C@H](C)[C@@H](CN(C)S(=O)(=O)c2ccc(Oc3ccccc3)cc2)OCc2cn(nn2)CCCC1=O,-3.4&0.7&2.0,3&-1,-3&-4,-6.2&1.2,i
C[C@H]1CN([C@@H](C)CO)C(=O)c2cc(NC(=O)Nc3ccc(C(F)(F)F)cc3)ccc2O[C@@H]1CN(C)Cc1ccc2c(c1)OCO2,3.2,-4,0,-3.0,i
C[C@@H]1CN([C@H](C)CO)S(=O)(=O)c2ccc(C#Cc3cccc(F)c3)cc2O[C@H]1CN(C)C,9.7,-8,-60,31,i
C[C@H](O)C#Cc1ccc([C@@H]2[C@H](CO)N3CCCCN(S(=O)(=O)c4ccccc4)C[C@@H]23)cc1,-0.9,0,11,-2.2,i
Cc1ccccc1S(=O)(=O)NCC[C@H]1CC[C@@H](NC(=O)C2CCCCC2)[C@H](CO)O1,-2.7,-5,-1,-0.9,i
Cc1noc(C)c1NC(=O)Nc1ccc2c(c1)C(=O)N([C@@H](C)CO)C[C@H](C)[C@@H](CN(C)C(=O)Nc1ccc(F)cc1)OCCCC[C@H](C)O2,0.8,0,-1,1.0,i
CCCc1nc2cc(C)c(Br)c(C)n2c1Cc1ccsc1,-0.6,2,5,4.9,i
COCOc1ccc(-c2ncc(OC)nc2NC(=O)c2cc(C)oc2C)cc1,2.6,-5,-2,0.5,i
CCC(=O)N(C)C[C@H]1Oc2ncc(C#Cc3ccncc3)cc2C(=O)N([C@@H](C)CO)C[C@@H]1C,-9.2&-10&-7.0,16&7,14&11,4.8&-0.7,i
CCNC(=O)C1(C)CCCN(Cc2cccc3c(OC)cc(C(=O)OCC)cc23)C1 (centres undefined),2.9,-11,-14,4.3,i
C[C@H](CO)N1C[C@H](C)[C@H](CN(C)Cc2ccccc2)Oc2c(NS(C)(=O)=O)cccc2C1=O,0.4,2,3,-0.3,i
C[C@H]1CN([C@@H](C)CO)C(=O)c2cccc(N(C)C)c2O[C@@H]1CN(C)S(=O)(=O)c1ccccc1,-2.1,-10,-5,0.9,i
CO[C@@H](CN(C)C(=O)Nc1ccc(C(F)(F)F)cc1)[C@H](C)CN(Cc1ccccc1Cl)[C@H](C)CO,4.0,-54,-70,-11,i
Cc1cccc(S(=O)(=O)N2CCCCN3[C@H](CO)[C@H](c4ccc(-c5cccnc5)cc4)[C@@H]3C2)c1,-1.9,-23,-48,3.3,i
COc1ccc(NC(=O)N(C)C[C@@H]2Oc3ccc(NC(=O)Cn4cnnn4)cc3CC(=O)N([C@@H](C)CO)C[C@H]2C)cc1,-0.9,2,10,1.1,i
